Screening data (PubChem)
HCMV UL50-53 inh: inhibitors of HCMV UL50-UL53 nuclear egress complex interaction | HTRF UL50-UL53 interaction, normalized percent inhibition | inhibition, % (no concentration beside the values) | 0.15% of 190,000 active | AID 1918969;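 active = both replicates at 50% or more, plus weaker picks with an unusually low signal ratio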;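 also: stock transfer was 100 nL into about 20 µL; 0% = negative control wells and 100% = wells with untagged competitor protein; inactives centre near -12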
GIV-Gai inh: inhibitors of GIV GBA-motif binding to rat Galpha-i3 | Galpha-i3/FITC-GIV peptide fluorescence polarization, 90 min; active compounds read low; scaled: aluminum fluoride 0%, vehicle 100% | percent of control (FP), % (concentration not given with the values) | 0.42% of 210,000 active | AID 1224905;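 active = replicate mean at 85% of control or lower, very high polarization wells dropped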;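 also: wells of about 15 µL received 100 nL stock; the first replicate is given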
Target sequence (P08753 whole entry, looked up): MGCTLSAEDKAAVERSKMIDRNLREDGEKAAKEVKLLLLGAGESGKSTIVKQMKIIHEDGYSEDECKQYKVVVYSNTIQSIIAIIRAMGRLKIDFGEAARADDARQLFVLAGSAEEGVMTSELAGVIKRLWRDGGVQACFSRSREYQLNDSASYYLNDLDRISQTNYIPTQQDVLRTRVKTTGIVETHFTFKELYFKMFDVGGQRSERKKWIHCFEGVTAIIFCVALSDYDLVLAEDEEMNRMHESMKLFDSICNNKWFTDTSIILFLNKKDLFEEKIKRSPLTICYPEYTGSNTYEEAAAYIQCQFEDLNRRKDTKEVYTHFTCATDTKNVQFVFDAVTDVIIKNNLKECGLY
Sa growth inh: S. aureus growth inhibition; relative growth, % (test concentration not listed); S. aureus RN4220 growth, OD600, 20 h, 42 °C; active compounds read low; 0.53% of 170,000 active;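 active = growth at 42 °C up to 50% and 20 or more points under that at 30 °C, or under 10% at both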;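 also: 300 nL library stock went into each well; scaled to the means of positive and negative controls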
Sa growth inh second temp: also measured in Sa growth inh; calls as there; relative growth, %; measured here: growth at 30 °C;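 optical density after 20 h as mean of two plates; 100% = untreated growth and lower means inhibition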
Starred values were filed as active, the others as inactive; / = not tested or not shown; & = joins results of further samples.

SMILES	HCMV UL50-53 inh	GIV-Gai inh	Sa growth inh	Sa growth inh second temp
NNC(=O)C1CCN(c2ncc(C(F)(F)F)cc2Cl)CC1	-19	106	103	91
O=C(Nc1cnc2ccccn2c1=O)c1ccc(F)cc1	-104	99	85	85
Cc1ccc(-c2nn(-c3ccccc3)cc2CCC(=O)NCc2cccnc2)cc1	-2	97	/	/
CC(C)c1cc(C(=O)NCc2ccco2)no1	-14	105	93	90
COc1ccc2c(c1)CC/C(=C/c1cccs1)C2=O	-27	99	72	60
CC1CN(C(=O)COC(=O)C2CCC(C(C)(C)C)CC2)CC(C)O1 (stereo unspecified)	-22	/	104	93
CCc1cccc(C)c1NC(=O)c1ccc(C(=O)Nc2c(C)cccc2CC)cc1	/	96	97	95
COc1ccc(-n2ncnc2-c2ccc(Cl)cc2Cl)cc1	/	105	104	90
Cc1ccc(Cl)cc1NC(=O)C1CCN(c2ncnc3oc(C)c(C)c23)CC1	-22	101	/	/
CCOc1ccccc1N1CCN(C(=O)C2CCN(Cc3ccc(OC)cc3)CC2)CC1	-3	103	114	93
CCOc1cc(CNC(=O)c2cc(-c3ccc(Cl)s3)nc3ccccc23)ccc1OC	-14	104	100	94
NC[C@@H]1O[C@H](O[C@H]2[C@@H](O)[C@H](O[C@@H]3[C@@H](O)[C@H](N)C[C@H](N)[C@H]3O[C@H]3O[C@H](CN)[C@@H](O)[C@H](O)[C@H]3N)O[C@@H]2CO)[C@H](N)[C@@H](O)[C@@H]1O	-40&-16	111	96	96
CC(=O)Oc1ccccc1C(=O)NC(C)(C)C	-6	/	82	77
O=C(CCn1nc(-c2ccccc2)ccc1=O)NCCc1ccccc1	/	103	82	75
O=C(NC1CCCCC1)c1ccc2c(c1)ncn2C1CCCCCC1	/	101	119	88
CC(Sc1nnc(Cc2cccc3ccccc23)n1C1CCCCC1)C(=O)NCc1ccco1 (stereo unspecified)	-10	/	116	90
Cc1cc(=O)[nH]c(NCc2ccc(F)cc2)n1	-16	101	/	/
Oc1c(O)c(CN2CCCCC2)c2ccccc2c1CN1CCCCC1	-40	102	82	81
COc1ccc(-c2cnnn2-c2ccc(NC(=O)c3ccc(S(=O)(=O)N(C)C)cc3)cc2)cc1	/	107	114	92
Cc1ccc2c(c1)N(C(=O)N1CCC(C(=O)NCc3cccs3)CC1)CC(C)O2 (stereo unspecified)	-22	105	99	95
O=C(O)CCSCc1ccccc1F	/	106	89	91
O=C(Cn1nc(N2CCN(c3ccccc3)CC2)ccc1=O)NCc1ccccn1	-41	110	/	/
CCOc1ccc(S(=O)(=O)Nc2ccc(-c3ccc(N4CCCC4)nn3)cc2)cc1	/	98	90	86
O=c1[nH]c(CN2CCOCC2)nc2c1oc1ccccc12	-2	98	89	85
Cc1cc(NS(=O)(=O)c2ccc(NC(=O)COc3c(C)ccc(C)c3C)cc2)nc(C)n1	-20	105	101	87
Additional structures:
SMILES	HCMV UL50-53 inh	GIV-Gai inh	Sa growth inh	Sa growth inh second temp
Cn1c(=O)n(Cc2ccccc2F)c(=O)c2c1nc1n2CCCN1Cc1ccco1	-29	102	95	89
COC(=O)c1ccc(OCC(=O)c2cccc(OC)c2)cc1	-7	105	118	92
NS(=O)(=O)c1ccc(CCNC(=O)c2cccc(-n3nnc4cccnc43)c2)cc1	-30	117	/	/
Cc1ccn2c(=O)c(C(=O)Nc3ccc(F)c(C(F)(F)F)c3)cnc2c1	-12	104	97	84
c1ccc2c(c1)OCC(CNc1ncnc3sccc13)O2 (stereo unspecified)	-20	/	87	82
Cn1cc(-c2cc3n(n2)CCC(=O)N3CC(=O)NCc2ccccc2)c2ccccc21	/	107	100	94
CCN(CCN(C)C)c1ncc(C(=O)O)cc1NS(=O)(=O)c1ccc(F)c(F)c1	-13	61*	/	/
CC1(C)CC(=O)C=C(N2CCN(c3ccccn3)CC2)C1	-32	/	82	97
COc1cccc(OC)c1C(=O)Nc1c(C(=O)N2CCN(c3ncccn3)CC2)oc2ccccc12	-9	97	103	84
Cc1ccc(N2C(=O)c3oc4ccccc4c(=O)c3C2c2cccnc2)nc1 (stereo unspecified)	-18	102	/	/
CCOC(=O)c1cccc(NC(=O)c2ccc3nc(Cc4ccccc4)oc3c2)c1	/	104	96	83
COc1cc(NC(=O)CCCN2C(=O)CCn3nc(-c4cn(C)c5ccccc45)cc32)cc(OC)c1	/	101	113	96
CN(C)c1ccc(-c2nc3cnccn3c2Nc2ccccc2)cc1	-9	100	73	86
COc1ccc(S(=O)(=O)N2CCN(Cc3noc(CCC(=O)N(C)Cc4ccccc4)n3)CC2)cc1	-8	108	/	/
COc1ccccc1NC(=O)CN(C)S(=O)(=O)c1ccc2c(c1)n(C)c(=O)c(=O)n2C	0	100	105	92
Cc1ccc2oc(=O)c3cnn(CC(=O)NCCc4ccc(S(N)(=O)=O)cc4)c3c2c1	-23	95	102	88
CCOc1ccc(C2C(C(N)=O)=C(C)Nc3nc(-c4cccc(Cl)c4)nn32)cc1OC (stereo unspecified)	-18	97	105	84
CCOC(=O)c1ccc(NC(=O)Nc2ccc3c4c(cccc24)C(=O)N3CC)cc1	-1	118	101	80
Cc1nc(N2CCOCC2)c2c(C)c(C(=O)N3CCN(c4ccc(F)cc4)CC3)sc2n1	-22	107	/	/
CC(=O)N(CCP(=O)(c1ccccc1)c1ccccc1)Cc1ccco1	-4	102	103	107
Cc1cc(C(=O)NCc2ccccc2)c2c(C)nn(-c3cccc(Cl)c3C)c2n1	/	107	117	110
CC(=O)Nc1cc(C(=O)N2CCOCC2)ccc1S(=O)(=O)c1ccc(C)cc1	6	102	94	94
Oc1ccccc1Oc1ncc(Br)c(N2CCOCC2)n1	-22	101	125	81
NC(=O)c1cc(N)ccc1N1CCOCC1	-30	104	121	111
CCOC(=O)C1CCN(C(=O)Cn2ncc3c(C)n(Cc4ccc(Cl)cc4)c(C)c3c2=O)CC1	/	102	91	85

The last three compounds of the part before lead into the next.
SMILES	HCMV UL50-53 inh	GIV-Gai inh	Sa growth inh	Sa growth inh second temp
Oc1ccccc1Oc1ncc(Br)c(N2CCOCC2)n1	-22	101	125	81
NC(=O)c1cc(N)ccc1N1CCOCC1	-30	104	121	111
CCOC(=O)C1CCN(C(=O)Cn2ncc3c(C)n(Cc4ccc(Cl)cc4)c(C)c3c2=O)CC1	/	102	91	85
CC(C)c1ccc(NC(=O)c2ccc(-n3nc(OCc4ccc(Cl)cc4)ccc3=O)cc2)cc1	-14	108	/	/
CC(=O)N1CCn2c1nc(N(C)C)nc2=O	-10	104	98	88
COc1ccc(C=Nc2ccc(C)cc2)cc1	/	96	72	88
Cn1c(SC2CCOC2=O)nnc1-c1ccccc1F (stereo unspecified)	-27	/	82	86
O=C(O)c1[nH]c2ccccc2c1CC(=O)N1CCN(c2ccccc2F)CC1	/	100	108	101
CCN(CC)S(=O)(=O)c1cccc(C(=O)NCc2ccccc2)c1	-7	100	117	102
COC(=O)c1cc2n(n1)CC(C)(C(=O)NC1CCC(C)CC1)N(c1cc(OC)cc(OC)c1)C2=O (stereo unspecified)	6	97	/	/
CCOc1ccc(NC(=O)c2sc(-n3nc(C)c(CCC(C)C)c3C)nc2C)cc1	22	103	101	93
CC1(C)Cc2ccccc2C(C(=O)c2ccccc2)=N1	-15&-11	100&98	90	90
OCCN1CCN(c2ncnc3ccc(Br)cc23)CC1	-10	96	78	81
Nc1cccc2c1C(=O)N(C(=O)c1ccc3c(c1)S(=O)(=O)N=C1CCCCCN13)C2=O	-44	/	99	90
COC(=O)c1ccc2c(=O)n(CC3CCCO3)c(SCc3coc(-c4cccs4)n3)nc2c1 (stereo unspecified)	-6	/	91	93
Cc1c(Br)c(C(F)(F)F)nn1CC(=O)Nn1c(-c2ccccc2F)nc2ccccc2c1=O	-17	103	/	/
O=S(=O)(NCCOC12CC3CC(CC(C3)C1)C2)c1cc(Cl)ccc1Cl	-11	/	107	83
Cn1c(=O)c2c(ncn2CCC(=O)NCCc2ccc(F)cc2)n(C)c1=O	/	103	78	80
COc1ccc(/C=C/C(=O)Nc2ccc(Cl)c(Cl)c2)cc1OC	-13	100	101	82
CCc1ccc(NC(=O)c2ccc(F)c(S(=O)(=O)N3CCC4(CC3)OCCO4)c2)cc1	/	101	94	81
Cc1ccnc(NC(=O)CSc2ccccn2)c1	-10	105	94	85
CC(C)CN(CCNC(=O)C1CCCN(S(=O)(=O)N2CCOCC2)C1)CC(C)C (stereo unspecified)	5	102	/	/
CCOC(=O)c1c(C)[nH]c(C)c1S(=O)(=O)NCC(=O)Nc1cc(C)ccc1OC	/	108	97	88
Cc1cc2c(cc1S(=O)(=O)NC1CCCCC1)OCCN2C	/	104	99	74
N#Cc1ccccc1Oc1ccccc1F	3	104	/	/
COc1ccc(C2(O)CCN(CCCCOc3ccccc3)CC2)cc1	-14	103	61	1
CCC1Oc2ccc(S(=O)(=O)N3CCN(C(=O)c4cncc(Br)c4)CC3)cc2NC1=O (stereo unspecified)	-12	102	/	/
CNC(=O)c1csc(-c2ccccc2)n1	-10	105	/	/
The listing continues:
SMILES	HCMV UL50-53 inh	GIV-Gai inh	Sa growth inh	Sa growth inh second temp
COc1ccccc1N1CCN(CCCNC(=O)Cn2ncc3c([nH]c4ccccc43)c2=O)CC1	/	105	126	81
Cn1ncc2c(N3CCCCC3)nc(N3CCCC3)nc21	0	110	94	83
Cn1c(=NC(=O)C2CCCCC2)sc2cc(F)ccc21	-42	98	91	86
CC(=O)Nc1ccc2nc(SCCOc3ccccc3)sc2c1	-23&10	95&103	105	86
CCCc1noc(-c2ccc(Br)cc2)n1	2	105	87	82
CCOC(=O)c1sc2nc(CN3CCOCC3)nc(NCC3COc4ccccc4O3)c2c1C (stereo unspecified)	2	/	103	96
COc1cccc(N2CCN(C(c3ccccc3)c3nnc(-c4ccc(Cl)cc4)o3)CC2)c1 (stereo unspecified)	-10	109	/	/
Clc1ccc(-c2nnc(C3CC3)o2)cc1	2	100	116	104
O=C1CCCC2=C1C(c1ccccc1Cl)N=C(Nc1nc3ccccc3s1)N2 (stereo unspecified)	/	100	124	94
COc1ccccc1CNC(=O)CN1C(=O)CCn2nc(-c3ccccc3)cc21	/	99	83	89
CN(Cc1ccccc1)C(=O)c1nc(-c2ccccc2)n(-c2ccccc2)n1	-25	97	/	/
Cc1ccc(CNS(=O)(=O)c2c(C)nc3scc(C)n3c2=O)cc1	3	103	110	103
COC(=O)c1ccc(C(=S)NCC(OC)OC)cc1	-21	/	83	86
COc1cccc(-c2cc(C(=O)Nc3cnn(Cc4ccc(Cl)cc4Cl)c3)no2)c1	21	109	102	107
CC(C)CNC(=O)C1CCN(C(=O)c2ccc(F)cc2)CC1	/	105	88	80
CCC(=O)N1c2ccc(S(=O)(=O)CCC(=O)NCc3cccc(OC)c3)cc2CC1C (stereo unspecified)	-22	105	97	93
O=C(CN1CCOc2ccccc21)NCc1ccco1	/	109	95	92
COc1ccccc1NC(=O)C1COc2ccccc2O1 (stereo unspecified)	-13	101	/	/
CCOc1ccc(NC(=O)NCCCN2CCN(c3ccc(F)cc3)CC2)cc1	2	102	116	93
CCCCN(CC)CCCNC(=O)C1=C(C)C(=O)OC12CCCCC2	7	104	/	/
Cc1ccc(/C=C2/N=C(c3ccccc3)NNC2=O)cc1	-9	102	107	103
O=C(O)CCn1ccnc1	0	101	108	90
NC(=O)COc1coc(CN2CCc3ccccc3C2)cc1=O	11	104	98	101
CC(C)NC(=O)Cn1c(=O)n(-c2ccc(CC(=O)NC3CCCC3)cc2)c(=O)c2ccccc21	2	99	/	/
Cc1nc(/N=C/N(C)C)c(Br)cc1Br	-26	106	99	67
Later entries:
SMILES	HCMV UL50-53 inh	GIV-Gai inh	Sa growth inh	Sa growth inh second temp
COc1ccccc1-c1nnc(C2CCN(C(=O)c3ccc(C)cc3)CC2)o1	-32	103	105	87
CN1CCN(CCNC(=O)CN2C(=O)CSc3ccc(C(=O)N4CCCC4)cc32)CC1	-29	104	/	/
CCOC(=O)CCc1c(C)n[nH]c1C	-1	107	104	90
Cn1c(CSCC(=O)Nc2ccccc2)nnc1SCC(=O)c1ccc(F)c(F)c1	-19	95	82	56
CCC(=O)N1CCc2cc(S(=O)(=O)NC(CC(C)C)C(=O)Nc3cc(C)ccc3C)ccc21 (stereo unspecified)	/	104	88	90
CCc1ccc(Sc2cc(C(=O)NC(C)CC)c3ccccc3n2)cc1 (stereo unspecified)	/	99	164	88
CCCCC(CC)CNC(=O)CCCCn1c(=O)[nH]c2ccsc2c1=O (stereo unspecified)	-15	111	97	94
CSc1cc(-c2nccs2)[nH]n1	-7	103	95	96

Structures above with a furan ring, fused or not, in the order listed:
SMILES	HCMV UL50-53 inh	GIV-Gai inh	Sa growth inh	Sa growth inh second temp
CC(C)c1cc(C(=O)NCc2ccco2)no1	-14	105	93	90
Cc1ccc(Cl)cc1NC(=O)C1CCN(c2ncnc3oc(C)c(C)c23)CC1	-22	101	/	/
CC(Sc1nnc(Cc2cccc3ccccc23)n1C1CCCCC1)C(=O)NCc1ccco1 (stereo unspecified)	-10	/	116	90
O=c1[nH]c(CN2CCOCC2)nc2c1oc1ccccc12	-2	98	89	85
Cn1c(=O)n(Cc2ccccc2F)c(=O)c2c1nc1n2CCCN1Cc1ccco1	-29	102	95	89
COc1cccc(OC)c1C(=O)Nc1c(C(=O)N2CCN(c3ncccn3)CC2)oc2ccccc12	-9	97	103	84
CC(=O)N(CCP(=O)(c1ccccc1)c1ccccc1)Cc1ccco1	-4	102	103	107
O=C(CN1CCOc2ccccc21)NCc1ccco1	/	109	95	92
